KCNQ2 inh: KCNQ2 potassium channel inhibitors, primary screen, cell-based, CHO-K1, FluxOR thallium flux, B-score (AID 2156); 310,000 compounds, 1.1% hits; B-score at 10 µM; 20 min; stronger effect = lower value; only compounds with negative scores are shown here; some inactives read as strong as hits; Potassium voltage-gated channel subfamily KQT member 2 (Rattus norvegicus), O88943;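 active = fluorescence ratio B-score at most minus 3 library SDs, with starting brightness B-score within 2 library SDs, cut at about -5.5 in these data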
Target sequence (O88943 whole entry, looked up): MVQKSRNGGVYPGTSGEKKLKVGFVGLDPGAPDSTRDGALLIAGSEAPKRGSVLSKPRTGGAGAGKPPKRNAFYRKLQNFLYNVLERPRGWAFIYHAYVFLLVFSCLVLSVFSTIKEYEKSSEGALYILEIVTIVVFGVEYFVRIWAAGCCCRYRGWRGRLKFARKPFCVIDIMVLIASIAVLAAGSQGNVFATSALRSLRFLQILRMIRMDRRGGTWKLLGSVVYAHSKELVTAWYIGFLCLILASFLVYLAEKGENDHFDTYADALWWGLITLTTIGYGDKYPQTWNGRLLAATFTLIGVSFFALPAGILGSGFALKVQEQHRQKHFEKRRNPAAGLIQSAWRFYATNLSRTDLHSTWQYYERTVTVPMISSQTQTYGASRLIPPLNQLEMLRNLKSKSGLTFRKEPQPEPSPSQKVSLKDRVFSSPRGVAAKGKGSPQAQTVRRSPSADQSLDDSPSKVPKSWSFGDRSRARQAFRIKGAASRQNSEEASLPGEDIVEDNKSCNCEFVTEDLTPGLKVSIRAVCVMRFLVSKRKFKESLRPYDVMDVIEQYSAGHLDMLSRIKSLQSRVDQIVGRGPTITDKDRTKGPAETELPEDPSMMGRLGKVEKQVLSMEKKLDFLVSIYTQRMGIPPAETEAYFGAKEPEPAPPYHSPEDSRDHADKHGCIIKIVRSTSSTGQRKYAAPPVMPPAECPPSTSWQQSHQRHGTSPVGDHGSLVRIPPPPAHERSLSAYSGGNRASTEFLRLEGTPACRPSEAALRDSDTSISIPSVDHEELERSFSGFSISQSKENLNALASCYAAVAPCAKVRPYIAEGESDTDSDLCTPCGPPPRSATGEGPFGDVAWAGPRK
KCNQ2 inh baseline: second read-out of KCNQ2 inh, no call of its own (marks repeat the call); B-score; measured here: initial fluorescence intensity artifact check;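 brightness before thallium and not channel activity; 0 = typical well and far values either way flag optical interference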
* hit, by the source's call; i = inactive. These rows are one share of the data; count on the stated rates, not on these rows.

The first three compounds as a preview:
KCNQ2 inh | KCNQ2 inh baseline | molecule
i | 0.02 | COc1ccc(C(=O)C2CCN(C(=S)NCCc3ccc(OC)c(OC)c3)CC2)cc1
i | -0.01 | CCC(C)OC(=O)C1=C(C)O[C@]23OC(N)=C(C#N)[C@]12C(=O)c1ccccc13 (stereo partly specified)
i | 0.86 | O=C(NC(=S)Nc1cc(Cl)ccc1N1CCOCC1)c1ccccc1[N+](=O)[O-]

The listing, from the start:
KCNQ2 inh | KCNQ2 inh baseline | molecule
i | 0.02 | COc1ccc(C(=O)C2CCN(C(=S)NCCc3ccc(OC)c(OC)c3)CC2)cc1
i | -0.01 | CCC(C)OC(=O)C1=C(C)O[C@]23OC(N)=C(C#N)[C@]12C(=O)c1ccccc13 (stereo partly specified)
i | 0.86 | O=C(NC(=S)Nc1cc(Cl)ccc1N1CCOCC1)c1ccccc1[N+](=O)[O-]
i | -0.75 | CCOc1ccccc1NC(=O)CN1CCc2ccccc2C1
i | 0.46 | O=[N+]([O-])c1cccc(/C=N/Nc2ncc(Br)cn2)c1
-6.73* | -1.24* | C=CCNC(=O)/C(C#N)=C/c1ccccc1Cl
i | 0.3 | CC(=O)c1nnn(-c2cccc([N+](=O)[O-])c2)c1C
i | -2.87 | Cc1cccc(C(C)C)c1NC(=O)COC(=O)COc1ccc2c(C)cc(=O)oc2c1
i | 0.2 | Cc1ccccc1NC(=S)NCC(c1cccnc1)N1CCOCC1 (stereo unspecified)
i | -0.77 | NC1=NC[C@H](Cc2ccccc2)N1CCc1cc(C(F)(F)F)cc(C(F)(F)F)c1
i | 1.25 | Cc1nc(SC2CC(=O)N(c3cc(Cl)cc(Cl)c3)C2=O)nc2c1CCCC2 (stereo unspecified)
i | -0.01 | Cc1cc(C)c(NC(=O)C2=CCN(S(=O)(=O)c3ccc(F)cc3)CC2)c(C)c1
i | 1.5 | CCCCNC(=O)N1CCN(C(=O)C2CCCO2)CC1 (stereo unspecified)
i | -0.01 | CCOC(=O)c1ccc(Nc2sc(C(=O)c3cccc([N+](=O)[O-])c3)c(N)c2C#N)cc1
i | 1.3 | O=C(O)c1ccccc1C(=O)Nc1ccccc1[N+](=O)[O-]
i | 0.79 | C=CCNc1cccc(Br)c1
i | 0.54 | CCc1ccc(C(O)(c2ccccc2OC)C(CN2CCOCC2)c2ccccc2)cc1 (stereo unspecified)
i | -1.02 | CCCC(=O)Nc1nnc(S(=O)(=O)N2CCCCCC2)s1
i | 1.24 | O=C(C#Cc1ccccc1)Nc1ccccc1F
i | -2.39 | CCOC(=O)c1c(NC(=O)Cn2nnc(-c3ccc(Cl)cc3)n2)sc(C)c1C
i | -0.61 | COCCCn1c(C(=O)N2CCOCC2)cc2c(=O)n3cccc(C)c3nc21
i | 0.17 | CC(C)N(C(=O)COC(=O)CNC(=O)c1ccc(Br)cc1)c1ccccc1
i | -0.33 | COc1ccc(N(CC(=O)NN=C2CCCC2)S(=O)(=O)c2ccccc2)cc1
i | -1.17 | COc1ccccc1N1CCN(C(=O)c2ccc3c(Cl)c4c(nc3c2)CCCC4)CC1
-5.79* | 0.02* | COc1cc(NC(=O)c2ccnnc2)cc(C(=O)Nc2cccc(C(F)(F)F)c2)c1
i | -2.37 | COc1ccc(NS(=O)(=O)c2cccs2)cn1
i | 0.98 | Cc1[nH]c2ccccc2c1/C=C/c1nc2ccccc2c(=O)n1-c1ccc([N+](=O)[O-])cc1
-5.74* | 1.32* | COc1ccc(C)cc1Nc1n[n+](-c2ccccc2)c(-c2ccc(N(C)C)cc2)s1
i | 2.29 | Cc1ccccc1C(=O)N/N=C/c1ccccn1
i | 0.97 | O=C(N/N=C/c1ccco1)c1ccccc1OCc1ccc(Br)cc1

Of the compounds above, these have a cyano group:
KCNQ2 inh | KCNQ2 inh baseline | molecule
i | -0.01 | CCC(C)OC(=O)C1=C(C)O[C@]23OC(N)=C(C#N)[C@]12C(=O)c1ccccc13 (stereo partly specified)
-6.73* | -1.24* | C=CCNC(=O)/C(C#N)=C/c1ccccc1Cl
i | -0.01 | CCOC(=O)c1ccc(Nc2sc(C(=O)c3cccc([N+](=O)[O-])c3)c(N)c2C#N)cc1

(more compounds)
KCNQ2 inh | KCNQ2 inh baseline | molecule
i | 1.74 | COc1ccc(-c2nn(-c3ccccc3)cc2/C=C\C(=O)N2CCOCC2)cc1[N+](=O)[O-]
i | -0.49 | CN1CCN(C(=O)c2ccc(N(Cc3ccc(Cl)cc3)S(C)(=O)=O)cc2)CC1
i | 0.62 | CC(C)NS(=O)(=O)c1ccc(CCC(=O)O)cc1
i | 0.93 | Cc1ccccc1C(=O)O/N=C(\N)c1ccc([N+](=O)[O-])cc1
i | -0.46 | O=S(=O)(Nc1ccccn1)c1ccc(Cl)c2ccccc12
i | 1.81 | Cc1csc(N(C(=O)c2ccccc2F)c2ccccc2)n1
i | 1.57 | O=C(COC(=O)CSc1ccc2ccccc2c1)NCc1ccc2c(c1)OCO2
i | -1.76 | CN(C)c1nc(N/N=C/c2ccccc2O)nc(Nc2ccc(F)cc2)n1
i | -1.59 | CCOC(=O)N1CCN(Cc2nc3cc(NC(=O)CC)ccc3n2CC)CC1
i | 0.67 | O=C(Nc1ccc(Br)cc1F)C1CC(=O)N(C2CCCCC2)C1 (stereo unspecified)
i | -0.38 | COc1ccc(N=C(c2ccccc2)c2c(C)[nH]n(-c3ccccc3)c2=O)c(OC)c1
i | -0.57 | N#CCNC(=O)C1c2ccccc2Oc2ccccc21
i | -0.01 | Cc1ccccc1CS(=O)(=O)c1snnc1C
i | 1.35 | CC(=O)Nc1ccc(S(=O)(=O)NC(C)c2nc(-c3ccccc3)no2)cc1 (stereo unspecified)
i | -1.44 | CC(Oc1cc2oc(=O)c3c(c2cc1Cl)CCC3)C(=O)N1C[C@H]2C[C@@H](C1)c1cccc(=O)n1C2 (stereo partly specified)
i | -0.51 | CC(C)(C)C(=O)O/N=C(\N)c1ccc([N+](=O)[O-])s1
i | 2.32 | O=C1c2ccccc2S(=O)(=O)c2cc(N3CCc4ccccc4C3)ccc21
i | 0.92 | CCc1ccccc1NC(=O)c1cc(S(=O)(=O)N2CCc3ccccc32)cn1C
i | -0.03 | CN(C)C/C(Cl)=C(\Cl)c1ccccc1
i | 0.04 | Cc1cc(Cl)ccc1NC(=O)CN1CCN(C(=O)c2ccco2)CC1
i | 0.82 | CCc1ccc(Nc2n[n+](C)c(-c3ccncc3)s2)cc1
i | 0.26 | O=C(Nc1ccon1)c1sc2cc(Cl)ccc2c1Cl
i | 0.45 | FC(F)(F)c1nc(Oc2ccccc2)c2ccccc2n1
i | 0.56 | O=C(O)c1cc(Cl)c2ccccc2c1O
i | 1.62 | CC(=O)N1CCc2c(sc(NC(=O)CCS(=O)(=O)c3ccccc3)c2C(N)=O)C1
i | 0.35 | Cc1nnc2sc(SCc3ccc(Cl)cc3)nn2c1=O
i | -2.66 | O=S(=O)(NC1CC1)c1ccc(S(=O)(=O)N2CCCC(c3nc(-c4cccnc4)no3)C2)cc1 (stereo unspecified)
i | 2.2 | COc1ccc(CCNC(=O)COc2ncnc3ccccc23)cc1
i | 0.12 | COC(=O)C1CC23C=CCN4CCC5(c6ccccc6NC15C2C)C43 (stereo unspecified)
i | 0.82 | Cc1cc(C)cc(NS(=O)(=O)c2cc(C(=O)NCc3ccccn3)ccc2Cl)c1

Single records, from the list above. Screens in order: KCNQ2 inh, KCNQ2 inh baseline
`CCc1ccccc1NC(=O)c1cc(S(=O)(=O)N2CCc3ccccc32)cn1C` in the list: i, 0.92
`O=C(O)c1cc(Cl)c2ccccc2c1O` in the list: i, 0.56
`CCOC(=O)c1ccc(Nc2sc(C(=O)c3cccc([N+](=O)[O-])c3)c(N)c2C#N)cc1` in the list: i, -0.01
`COc1cc(NC(=O)c2ccnnc2)cc(C(=O)Nc2cccc(C(F)(F)F)c2)c1` in the list: -5.79*, 0.02*
`CC(=O)c1nnn(-c2cccc([N+](=O)[O-])c2)c1C` in the list: i, 0.3

Other compounds:
KCNQ2 inh | KCNQ2 inh baseline | molecule
i | -0.03 | COc1cccc(NC(=O)CCc2nnc3ccc(NCc4ccco4)nn23)c1
i | 0.77 | COc1cc(/C=N/NC(=O)c2cncc(Br)c2)cc([N+](=O)[O-])c1O
i | -1.94 | O=C(CN1CCCN(S(=O)(=O)c2ccc(Br)s2)CC1)Nc1ccc(Cl)cc1
i | 2.25 | N#CC(C#N)=C(Nc1ccc(F)cc1)SCc1cccc(Br)c1
i | -1.23 | CCC(=O)Nc1sc2c(c1C#N)CCC2
i | 0.24 | O=C(CN1CCN(c2ccc(O)cc2)CC1)Nc1cc([N+](=O)[O-])ccc1Cl
i | 2.38 | COc1ccccc1N(C(=O)c1cncc(Br)c1)c1nc(-c2ccc(C)cc2)cs1
i | -0.59 | c1coc(-c2nnc(NC3=NCCC3)o2)c1
i | 0.46 | COc1cc(OC)c2c(c1)C(=O)c1cc(OC)cc(OC)c1C2=O
i | -1.08 | Cc1nc2scc(-c3cccs3)c2c(=O)n1-n1cccc1
i | 2.09 | CCC1(C(=O)OC)NC(c2ccco2)C2C(=O)N(c3ccc(F)cc3)C(=O)C21 (stereo unspecified)
i | 2.41 | COc1cccc(NC2C=CS(=O)(=O)C2)c1 (stereo unspecified)
i | 0.61 | Cc1ccc(NC(=O)CCCCCN2C(=O)[C@@H]3Cc4ccccc4CN3C2=O)c(Cl)c1
i | 0.92 | Cc1cccc2cc(CN(Cc3ccco3)C(c3nnnn3CCc3ccccc3)C(C)C)c(=O)[nH]c12 (stereo unspecified)
i | -1.14 | Cc1nc2sccn2c(=O)c1CCN1CCC(=C(c2ccc(F)cc2)c2ccc(F)cc2)CC1
i | -1.14 | O=C(CNCc1cccc(Cl)c1)N1CCc2ccccc2C1
i | -0.12 | CC(=O)c1ccc(N2CCN(C(=O)COc3ccc(F)cc3)CC2)c(F)c1
i | 0.77 | COCCN(Cc1ccco1)C(=O)Cn1ncc2c(=O)oc3ccccc3c21
-8.16* | 1.67* | CCCCN(C)c1nc(-c2ccco2)c2c(c1C#N)CC(C)(C)OC2
i | -0.19 | c1ccc(CN2CCN(c3nc(-c4ccccn4)nc4ccccc34)CC2)cc1
i | -1.91 | COc1ccc(-c2nsc3c(N4CCN(S(=O)(=O)c5ccccc5F)CC4)ncnc23)cc1
i | 0.86 | COc1ccc(C2C(C#N)=C(N)Oc3cc(O)ccc32)cc1Cl (stereo unspecified)
i | -0.79 | CC1CC(C)CN(CC(O)COCc2ccccc2)C1 (stereo unspecified)
i | 0.08 | COc1ccccc1CNC(=O)C(CCSC)NC(=O)C1CCC(C)CC1 (stereo unspecified)
i | -3.27 | COc1ccc(CCN2C(=NC(=O)C(C)C)SC3CS(=O)(=O)CC32)cc1 (stereo unspecified)
i | -0.17 | Cn1c(=O)c2[nH]c(-c3ccc(S(=O)(=O)O)cc3)nc2n(C)c1=O
i | 0.01 | O=C(CSc1nnc(-c2ccc(Cl)cc2)n1Cc1ccco1)c1cccs1
i | 0.35 | CN1CCN(c2ccccc2NC(=O)c2cccs2)CC1
i | 0.03 | CCOc1cc(/C=N/NC(=O)Cn2nc([N+](=O)[O-])cc2C)cc(Br)c1OCc1ccccc1F
i | -2.73 | O=C(O)/C=C/C(=O)c1ccc2c(c1)NC(=O)CO2
i | 0.02 | Cc1cccnc1NC(N)=S
i | 1.07 | CCOC(=O)N1CCN(C(=O)c2ccc3c(c2)N=C(C)c2cc(Cl)ccc2S3)CC1
i | -1.23 | COc1ccc(C(=O)N(CC(=O)NC(C)(C)C)c2ccc3c(c2)OCCO3)cc1OC
i | 0.22 | COC(=O)C1(C(C[N+](=O)[O-])c2ccc(C)cc2)C(=O)NCC1c1ccco1 (stereo unspecified)
i | -0.01 | CC(=O)c1sc(N/N=C2\CC3CC2C(C)C3(C)C)nc1C (stereo unspecified)
i | 0.22 | Cc1ccc(OCC(=O)NCCNC(=O)c2ccncc2)cc1C
i | 0.04 | O=C(Nc1cccc(Cl)c1Cl)C1CCCC1
i | -0.59 | Cc1ccc(C)c(NC(=O)N2CCc3ccccc3C2)c1
i | -0.63 | CN(C)c1ccc(C(=S)N2CCN(C(=S)Nc3ccccc3)CC2)cc1
-5.81* | 0.21* | COc1ccccc1NC(=O)CN1CCN(c2ccccc2F)CC1
i | -1.19 | Cc1ccccc1-c1nc(CS(=O)(=O)CC(=O)N2CCc3ccccc32)c(C)o1
i | 0.71 | CCOC(=O)N1CCC(Nc2cccc(SC)c2)CC1
i | 0.02 | CNC(=O)CSc1nnc(-c2ccncc2)n1Cc1ccccc1
i | -0.48 | Cc1cc2c(cc(C(=O)N3CCC(C(=O)N4CCCC4)CC3)n2Cc2c(F)cccc2Cl)o1
i | -1.51 | Oc1c(/C=N/c2ncn[nH]2)ccc2ccccc12
i | 0.43 | O=C1CCCN1c1ccc(Br)cc1
i | 0.22 | Cc1ccc(S(=O)(=O)NCC(=O)N(CC(=O)NC2CCCCC2)CC2CCCO2)cc1 (stereo unspecified)
i | -0.76 | COc1cc(C)c(C(=O)CSc2nnc(CNC(=O)c3ccco3)n2C)cc1C
i | -0.49 | CC(CCc1ccccc1)NC(=O)C1CCCN(c2nnc(-n3cccc3)s2)C1 (stereo unspecified)
i | -0.3 | O=C(Oc1ccc(C(=S)N2CCOCC2)cc1)c1ccc([N+](=O)[O-])cc1
i | 2.23 | COc1ccc(C=NCCC2(O)CC(C)N(C)CC2C)cc1 (stereo unspecified)
i | -1.27 | CCOc1ccc(-c2noc(CCC(=O)NCC3CCCO3)n2)cc1OC (stereo unspecified)
i | -0.1 | Cc1c(Nc2scc(-c3ccccc3)[n+]2-c2ccccc2)c(=O)n(-c2ccccc2)n1C
i | 2.19 | CCN(CC(=O)NCc1cccs1)C(=O)/C=C/c1cccc(Br)c1
i | 2.63 | COCCN(CCOC)S(=O)(=O)c1ccc(C(=O)Nc2nnc(C3CC3)o2)cc1
i | 0.03 | OCCCNCc1ccc(Cl)cc1Cl

Source: PubChem BioAssay (Johns Hopkins Ion Channel Center)
